# Source: PubChem BioAssay
# Beta apoptosis – beta cell apoptosis inhibition. AID 435005. 300,000 tested, 0.8% active. INS-1E cytokine-induced death, ATP luminescence, 48 h; percent of positive-control rescue, neutral wells zero. protection from apoptosis, % (test concentration not listed);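 active = all replicates at 75% or more, or half of them and the mean; inconclusive = half reach 75% but not the mean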;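 also: 0% = cytokine-treated negative control wells and 100% = positive control rescue; higher means more ATP so stronger rescue from cytokine killing; wells of about 40 µL received 100 nL stock; the first replicate is given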
# Calb FLC – C. albicans growth modulation with fluconazole. C. albicans CaCi-2 (fluconazole-resistant clinical isolate) + fluconazole, Alamar Blue growth, 48 h. growth inhibition, % (no concentration beside the values). 300,000 tested, 0.57% active. AID 1979;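 active = most replicates above 75%; inconclusive = exactly half above 75%; inactive = most below 75%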;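 also: all wells also contain fluconazole at 8 µg/ml as a sub-toxic cotreatment; 0% = median of DMSO wells and 100% = median of geldanamycin control wells; wells of about 8 µL received 7.5 nL stock; the first replicate is given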
# Vif TR-FRET – HIV-1 Vif–A3G interaction blockers – biochemical, TR-FRET, GST-Vif 1-94, biotin-A3G peptide, dose response retest, primary screen (AID 1117319). TR-FRET GST-Vif / biotin-A3G peptide binding; higher % means a stronger effect; test concentration not given here; strong numbers were not always called active. one-dose inhibition, %; IC50 in µM for titrated hits. 260,000 tested, 0.57% active;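 active = above the screen mean plus three standard deviations and confirmed in dose response; inconclusive = results disagree or hit not tested in dose response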;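 also: Vif residues 1-94 fused to GST binding biotinylated APOBEC3G peptide 110-148; 0% = full assay without inhibitor and 100% = GST in place of GST-Vif; retest series ran down from 100 µM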
# T cruzi inh – blocks replication of Trypanosoma cruzi; T. cruzi beta-gal in NIH3T3, luminescence, 90 h; 300,000 tested, 1.4% active; AID 1885; inhibition, % (test concentration not listed);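 active = mean inhibition across valid replicates above about 55%, limit read from the data; inconclusive = mean below that limit but half or more replicates reach it; inactive = mean below it, under half of replicates reach it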;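 also: signal also drops with host cell toxicity which is not excluded here; 0% = plate median of DMSO wells and 100% = zero luminescence signal; higher percent means less beta-gal luminescence so fewer parasites; stock transfer was 50 nL into about 50 µL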
# LANA-H2B inh – blocks KSHV LANA binding to histone H2A/H2B; AID 2629; 320,000 tested, 0.6% active; Q9QR71; cell-free LANA-H2A/H2B peptide, fluorescence polarization; inhibition, % (no concentration beside the values); in the data active = inhibition mostly above about 10%, no sharp cut-off; inactive = mostly below about 6.7%;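 also: stock transfer was 7.5 nL into about 10 µL; 0% = median of vehicle wells and 100% = median of positive control wells; one replicate is shown; the record names a cut of 25% in any replicate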
# MLL AF4-AF9 inh – inhibitors of human MLL-AF4/AF9 interaction. P42568. AlphaScreen, biotin-AF4 peptide binding to FLAG-AF9. inhibition, % at 10 µM. 350,000 tested, 0.47% active. AID 651704;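 active = every replicate reaching a set inhibition limit, whatever the replicate mean, cut at about 25% in these data; inconclusive = mean inhibition reaches that limit but some replicates miss it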;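 also: 0% = plate neutral control median and 100% = total signal loss; the record names both 10 and 1 µM as test concentration; the first replicate is given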
# Target sequence (P42568 whole entry, looked up): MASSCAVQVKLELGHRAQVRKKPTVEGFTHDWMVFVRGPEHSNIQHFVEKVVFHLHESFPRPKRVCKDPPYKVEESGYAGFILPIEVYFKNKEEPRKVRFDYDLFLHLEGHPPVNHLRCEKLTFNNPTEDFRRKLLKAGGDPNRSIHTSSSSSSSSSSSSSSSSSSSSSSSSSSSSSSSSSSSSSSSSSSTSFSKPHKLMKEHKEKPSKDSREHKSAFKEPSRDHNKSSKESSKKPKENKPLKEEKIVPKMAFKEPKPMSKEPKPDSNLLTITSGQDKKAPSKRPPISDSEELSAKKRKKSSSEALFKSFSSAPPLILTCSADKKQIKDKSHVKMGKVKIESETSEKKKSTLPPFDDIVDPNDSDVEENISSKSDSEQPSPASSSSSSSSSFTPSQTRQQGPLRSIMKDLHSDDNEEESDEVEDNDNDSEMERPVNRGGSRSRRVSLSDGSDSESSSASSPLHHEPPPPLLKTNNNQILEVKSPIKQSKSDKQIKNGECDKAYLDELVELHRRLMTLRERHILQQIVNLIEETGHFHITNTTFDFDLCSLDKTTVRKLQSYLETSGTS
# Bfl-1 A1 inh – inhibitors of the anti-apoptotic protein A1, read as caspase activation | MEF A1-2A-BIM cells, Caspase-Glo 3/7 luminescence, 3 h; percent of clofoctol response, vehicle zero | caspase activation, % (no concentration beside the values) | 330,000 tested, 0.066% active;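 active = over half of replicate activation scores above 10%, or exactly half above 10 with the replicate mean above 10; inconclusive = replicate mean below 10 yet half the replicates above 10; inactive = over half of replicates below 10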;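 also: wells of about 30 µL received 50 nL stock; many hits fall short of the cut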
# RanGTP-Imp inh – disruptors of Ran-importin-beta complex formation – biochemical, FRET, CFP-Ran, YFP-importin-beta, homogeneous, primary screen. cell-free CFP-Ran/YFP-importin-beta FRET ratio. inhibition, % (test concentration not listed). AID 2216. 300,000 tested, 1.1% active;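 active = most replicates above 15%; inconclusive = exactly half above 15%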;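 also: 0% = DMSO wells and 100% = Ran loaded with GDP instead of GTP; wells of about 40 µL received 100 nL stock; the first replicate is given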
# Numbers without * were called inactive; ? = inconclusive; · = no result given; & = joins results of further samples. Hits appear at their usual frequency; about 4.3% have a hit in one of these screens.
SMILES,Beta apoptosis,Calb FLC,Vif TR-FRET,T cruzi inh,LANA-H2B inh,MLL AF4-AF9 inh,Bfl-1 A1 inh,RanGTP-Imp inh
Cc1ccccc1-c1ccc(=O)n(CC(=O)Nc2ccc(S(=O)(=O)N(C)C)cc2)n1,-4,-33,6%,4,5.9,0.8,-1.4,-3.9
NC(=O)N\N=C/C=C/C=C/c1ccc(F)cc1,-3,-2,2%,-10,-6.9,0.4,0.1,-1.5
COc1c(F)c(F)c(C(=O)Nc2ccc(-c3nc4ccccc4[nH]3)cc2)c(F)c1F,1,0,7%,26,-3.9,-5.0,-1.0,2.1
COc1ccc(S(=O)(=O)NNC(=O)C23CC4CC(CC(C4)C2)C3)cc1,-9,-20,·,-6,4.9,-7.5,1.2,2.7
Cc1cc(C)c2c(=O)[nH]n(C3CCOC(C)(C)C3)c2n1 (stereo not drawn),-4,0,0%,0,1.2,1.7,1.3,-0.3
Cc1cc(=O)n2[nH]c(NCc3c(F)cccc3Cl)nc2n1,-4,-1,4%,-7,5.0,-3.6,0.1,2.8
Cc1nn(-c2ccccc2)c(C)c1C(=O)OCC(=O)NCc1ccco1,-3,·,-8%,20,5.1,·,-0.4,-4.1
O=C(CCN1CCN(c2ccc([N+](=O)[O-])cc2)CC1)c1ccc(Cl)cc1,-6,-10,0%,?,-4.5,3.3,0.0,2.9
COc1ccc(-c2ccnc3nc(N4CCOCC4)nn23)cc1,-1,8,2%,-9,0.7,·,2.3,5.2
CCc1nnc(NC(=O)c2cccc(S(=O)(=O)N3CCc4ccccc43)c2)s1,0,-8,1%&-2%,13,0.7,·,0.2,-0.5
CCOC(=O)c1c(C)c(C(=O)N2CCCCCC2)c(C)n1C,-7,14,-4%,-5,1.2,·,0.7,-1.6
O=C(CSCc1ccccc1)NNC(=S)Nc1cccc(Cl)c1Cl,-2,-3,19%,-16,-0.5,·,1.3,-0.3
CCOC(=O)c1n[nH]c2ccccc12,-2,5,16%,-10,6.4,·,0.3,5.2
COC(=O)c1c(C)[nH]c(C(=O)C(C)OC(=O)C2CC2C)c1C (stereo not drawn),1,·,·,·,2.7,-4.7,1.4,·
Cc1occc1C(=O)N1CCN(c2ccc(Cl)cc2)CC1,·,-3,-7%,-4,4.1,3.8,-0.4,-0.3
CCCCN(C(=O)c1cc2c(s1)CCC2)c1c(N)n(CC(C)C)c(=O)[nH]c1=O,-1,·,22%,·,1.3,0.8,0.6,·
COc1ccc(S(=O)(=O)N2CCOC2CNC(=O)C(=O)NCCCN2CCOCC2)cc1C (stereo not drawn),-4,0,·,-4,4.5,0.7,0.1,1.6
C/C=C(\C)C(=O)Nc1cccc(C2=NOC3(C2)C[C@H](C(N)=O)N(C(=O)CC#N)C3)c1 (stereo partly drawn),-8,-14,-1%,-6,2.1,-1.4,0.7,-4.1
COc1ccc(/C=N/n2c(C)cc(C)cc2=O)cc1,0,-8,·,-44,1.3,0.1,0.7,1.9
O=C(NCC(c1cccs1)N1CCOCC1)c1cn(-c2ccccc2)nc1-c1ccccc1 (stereo not drawn),7,·,?,·,3.0,2.3,-0.8,·

# Quoted at random: four records from the list
SMILES,Beta apoptosis,Calb FLC,Vif TR-FRET,T cruzi inh,LANA-H2B inh,MLL AF4-AF9 inh,Bfl-1 A1 inh,RanGTP-Imp inh
COc1c(F)c(F)c(C(=O)Nc2ccc(-c3nc4ccccc4[nH]3)cc2)c(F)c1F,1,0,7%,26,-3.9,-5.0,-1.0,2.1
Cc1occc1C(=O)N1CCN(c2ccc(Cl)cc2)CC1,·,-3,-7%,-4,4.1,3.8,-0.4,-0.3
C/C=C(\C)C(=O)Nc1cccc(C2=NOC3(C2)C[C@H](C(N)=O)N(C(=O)CC#N)C3)c1 (stereo partly drawn),-8,-14,-1%,-6,2.1,-1.4,0.7,-4.1
COc1ccc(S(=O)(=O)NNC(=O)C23CC4CC(CC(C4)C2)C3)cc1,-9,-20,·,-6,4.9,-7.5,1.2,2.7

# New compounds follow.
SMILES,Beta apoptosis,Calb FLC,Vif TR-FRET,T cruzi inh,LANA-H2B inh,MLL AF4-AF9 inh,Bfl-1 A1 inh,RanGTP-Imp inh
COc1cccc(CC2(CO)CCCN(Cc3ccc(OC)c(C)c3OC)C2)c1 (stereo not drawn),-3,-13,·,47,2.0,-8.1,-0.9,5.5
CC(C)c1ccc(OCC(=O)N2CCN(c3ccccn3)CC2)c(Br)c1,-21,3,·,1,1.0,-2.5,0.0,1.3
CC(C)COc1ccc(C(=O)NNC(=O)CCC(=O)c2cccs2)cc1,-1,·,·,·,1.5,0.8,0.1,·
CN(CCCNC(=O)C1CCC(=O)N1Cc1ccc(F)cc1)c1ccccc1 (stereo not drawn),·,0,7%,11,0.1,5.4,0.5,0.0
CN(C(=O)Nc1ccc(C(C)(C)C)cc1)C1CCCCC1,-6,-2,-4%,3,1.7,0.8,-0.2,12
O=C(Nc1cc(C(=O)N2CCOCC2)ccc1N1CCCC1)c1cccs1,0,-5,9%,-11,-5.2,1.9,0.3,-1.3
Cc1ccc(N(C(=O)c2ccccn2)C2(C(=O)NC3CCCC3)CCCCC2)cc1,·,11,-4%,5,-1.4,·,0.0,2.7
CCOc1c2ccc(C(=O)NCc3ccco3)cc2nn1CC,-1,-8,9%,-18,-1.0,·,-1.3,-1.5
CC(C)n1cc(/C=C2\NC(=O)N(c3cccc(Cl)c3)C2=O)c2ccccc21,-6,13,-5%,-31,-2.1,·,-0.3,-4.4
CCc1c(C)sc(NC(=O)c2cc(C3CC3)on2)c1C#N,-3,-7,11%,-8,-1.9,-4.9,0.1,3.9
O=C(CNC(=O)c1cccc(F)c1)OCC(=O)N1CCCCC1,-4,-5,?,-11,0.9,·,-0.8,-0.3
O=C(NCCN1CCOCC1)C1CCC(=O)N1Cc1ccc(F)cc1 (stereo not drawn),-7,22,?,4,-0.3,·,-0.6,-3.3
Cc1cc(N2CCCCC2)n2ncc(-c3ccc(Cl)cc3)c2n1,1,3,-4%,26,-3.3,·,-1.4,-4.0
CC(=O)Nc1ccc(C(=O)COC(=O)CCN2C(=O)C3CC=CCC3C2=O)cc1 (stereo not drawn),-6,-12,9%,-13,-1.2,-12,0.5,?
C=CC[C@H](CC(=O)N(CCO)Cc1ccccc1)C(=O)N[C@H](COC(=O)[C@@H](CC=C)Cc1ccc(F)cc1)Cc1c[nH]c2ccccc12,1,·,·,·,3.7,-2.7,0.0,·
CC(C)C(NC(=O)OC(C)(C)C)C(=O)N1CCCC1C(=O)NC(Cc1ccccc1)C(N)=O (stereo not drawn),-4,4,-1%,0,-5.2,·,-0.1,0.1
CN(C)C=Nc1nc2ccccc2nc1N1CCCC1,-10,-3,4%,-13,-1.0,-6.4,-0.5,0.7
Cc1ccc(N2C(=O)C(O)(C(F)(F)F)C3=C2CC(C)(C)CC3=O)cc1 (stereo not drawn),5,25,-3%,-7,-2.6,·,0.2,2.7
CC(=O)Nc1ccc(C(=O)Nc2ccncc2)cc1,·,-5,·,-5,1.2,-0.1,0.5,-2.2
O=C(CNC(=O)c1ccco1)NNC(=O)c1cccc(Cl)c1,-8,·,·,·,-8.3,-3.7,-0.4,·
O=C(Nc1ccc(F)c(Cl)c1)N1CCCCCC1,2,-2,-3%,4,-0.9,-0.3,0.7,1.5
Cn1nc(-c2ccccc2)cc1NC(=O)c1ccccc1,-5,10,0%,3,4.9,2.2,0.2,?
CCC(Sc1nc2cc3c(cc2c(=O)n1Cc1ccco1)OCO3)C(=O)Nc1cccc(OC)c1 (stereo not drawn),·,?,-7%,35,-0.4,·,4.2,1.5
O=S(=O)(/N=C(\Sc1ccc(Cl)cc1)c1ccccc1)c1ccccc1,-17,-15,3%,?,-3.8,·,1.9,-1.4
O=S(=O)(NCC1CCCN(Cc2ccccc2O)C1)c1cccc2cccnc12 (stereo not drawn),-5,-3,·,5,0.4,3.1,1.5,3.5
CC(=O)Nc1ccc(NC(=O)c2ccc(COc3ccccc3)cc2)cc1,2,-2,·,-6,1.4,3.7,-0.4,3.8
Cn1c(=O)n(C)c2cc([N+](=O)[O-])c(N3CCN(C(=O)c4cccc(Cl)c4)CC3)cc21,0,-16,·,7,-2.2,·,0.2,3.4
COc1cccc(Nc2c(F)c(F)c(F)c(F)c2C(=O)O)c1,-4,-3,0%,-12,-3.4,·,-0.4,-3.5
CCOc1ccc(/C(C)=N\NC(=O)Cc2ccccc2)cc1,2,16,·,-3,1.6,1.9,1.6,-3.2
O=C(Nc1ccn(Cc2ccc(F)cc2)n1)c1ccncc1,-16,1,4%,-14,-2.7,·,0.1,-6.3
CCn1nc(C)c(NS(=O)(=O)c2ccc(C)cc2)c1C,3,3,5%,-1,5.5,·,1.1,?
COc1ccccc1NC(=O)c1coc(=O)c(Br)c1,0,-1,13%,6,0.3,-0.1,-1.9,?
CCOC(=O)c1cnc(SC)nc1Sc1cc(Cl)ccc1Cl,4,0,15%,-12,0.9,·,0.2,-2.4
CSc1ccccc1C(=O)NCC1CCCO1 (stereo not drawn),1,12,4%,-2,2.6,·,0.0,1.4
CCOC(=O)c1cc(-c2ccccc2)nn1CC1CC(c2ccc(Cl)cc2)=NO1 (stereo not drawn),-13,-11,·,-5,-0.3,·,0.1,-0.2
COC(=O)c1cc(OC)c(OC)cc1NC(=O)c1cccnc1,·,11,19%,-2,·,·,·,-0.6
O=C(NC1CCCCC1)C(c1ccc2ncccc2c1)N(Cc1ccc2c(c1)OCO2)C(=O)c1ccc2c(c1)OCCO2 (stereo not drawn),1,6,·,-1,-0.5,5.5,-1.0,0.5
CCN(CC)c1ccc(/C=N/NC(=O)c2cnccn2)cc1,·,-3,8%,-7,·,-1.8,·,2.0
CNC(=O)Cn1ncc2c3ccccc3n(C)c2c1=O,1,6,-4%,-13,-2.5,·,0.7,0.4
CC1CCc2ccccc2N1C(=O)c1cccs1 (stereo not drawn),-7,6,-2%,10,-1.2,·,-0.2,-2.0
CCCCCCCCCCCCN1[C@@H](CC(=O)OC)c2cc(F)ccc2S1(=O)=O,7,1,·,21,1.7,-8.3,0.7,7.3
COc1cc(/C=N/O)cc(Br)c1OC,0,-3,?,-2,1.3,·,0.5,-3.5
O=C(Cc1c(F)cccc1Cl)NNC(=S)Nc1ccc(S(=O)(=O)Nc2ncccn2)cc1,2,-4,·,-13,0.0,-3.8,0.0,3.4
O=C(Cc1ccc(Cl)cc1)N/N=C/c1ccncc1,-5,-8,8%,-11,-0.1,0.1,-1.0,1.1
Cc1cccc(Cn2cc3c(=O)n(Cc4cccc(F)c4)nc-3c3ccccc32)c1,-6,-2,-2%,15,6.3,-0.7,-0.7,0.7
COc1ccc(NC(=O)CCn2c(=S)[nH]c3ccccc3c2=O)cc1,2,6,·,-1,3.5,-11,0.8,-3.0
CCn1c(=N)n(CC(=O)c2ccc(Br)s2)c2ccccc21,-3,-1,-15%,2,-1.7,2.7,0.5,3.1
C=CCOc1ccccc1CNc1cccc(F)c1,-2,-1,-5%,4,0.8,·,0.6,-6.0
